# Source: PubChem
# D2 PAM: positive allosteric modulators of human D2 dopamine receptor; AID 624464; 360,000 tested, 0.23% active; potentiation, % (concentration not given with the values); DiscoveRx D2 beta-arrestin cells, luminescence, 90 min; 100% = 57 uM dopamine signal; P14416; active = potentiation of 50% or more; inconclusive = 30% to 50%; inactive = 30% or less;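 also: compound concentration not given in the record; tested on top of an EC20 dose of dopamine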
#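 D2 cells co-treated with compound plus 50 nM dopamine (EC20) for 90 min at 37 deg C to detect potentiation. Beta-arrestin recruitment was read as enzyme-fragment luminescence after 1 h at ambient temperature. Full response was set by 57 uM dopamine.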
# Sfp inh: Sfp phosphopantetheinyl transferase inhibition; Q9F4F7; Potency, µM, for the others: max response, negative = inhibition, most hits filed as inhibitors; 310,000 tested, 3.5% active; Biochemical Sfp PPTase activity, qHTS; active = well fitted inhibition curve with a large enough effect; inconclusive = small, poorly fitted or top-dose-only effect, or another doubt; inactive = no such curve, though single readings can be large or run the other way;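 also: the enzyme is Sfp with the accession as filed and its product quenches rhodamine fluorescence; potency is read from the fitted curve at half-maximal effect; 0% = enzyme reaction without inhibitor and -100% = no enzyme wells; top concentration of the series not given in the record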
#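 Fluorescence-quenching assay with 15 nM Sfp, 5 uM rhodamine-CoA and 12.5 uM BHQ-2-labelled ybbR peptide in pH 7.6 Hepes/MgCl2 buffer. Enzyme was pre-incubated with compound for 15 min at room temperature. Rate was taken from the 30-min fluorescence change (525/598 nm).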
# TRPV1 potentiator: potentiators of human vanilloid receptor 1 (TRPV1). 320,000 tested, 0.02% active. potentiation, % at 8.33 µM. TRPV1-expressing cells, Fluo-8 calcium influx, capsaicin EC20 potentiation; host cell line not named in the record; control for the full effect not named in the record. Q8NER1; active means potentiation above 80%; inconclusive means 30% to 80%; inactive means below 30%; also: 0% is about no effect
# Target sequence (Q8NER1 whole entry, looked up): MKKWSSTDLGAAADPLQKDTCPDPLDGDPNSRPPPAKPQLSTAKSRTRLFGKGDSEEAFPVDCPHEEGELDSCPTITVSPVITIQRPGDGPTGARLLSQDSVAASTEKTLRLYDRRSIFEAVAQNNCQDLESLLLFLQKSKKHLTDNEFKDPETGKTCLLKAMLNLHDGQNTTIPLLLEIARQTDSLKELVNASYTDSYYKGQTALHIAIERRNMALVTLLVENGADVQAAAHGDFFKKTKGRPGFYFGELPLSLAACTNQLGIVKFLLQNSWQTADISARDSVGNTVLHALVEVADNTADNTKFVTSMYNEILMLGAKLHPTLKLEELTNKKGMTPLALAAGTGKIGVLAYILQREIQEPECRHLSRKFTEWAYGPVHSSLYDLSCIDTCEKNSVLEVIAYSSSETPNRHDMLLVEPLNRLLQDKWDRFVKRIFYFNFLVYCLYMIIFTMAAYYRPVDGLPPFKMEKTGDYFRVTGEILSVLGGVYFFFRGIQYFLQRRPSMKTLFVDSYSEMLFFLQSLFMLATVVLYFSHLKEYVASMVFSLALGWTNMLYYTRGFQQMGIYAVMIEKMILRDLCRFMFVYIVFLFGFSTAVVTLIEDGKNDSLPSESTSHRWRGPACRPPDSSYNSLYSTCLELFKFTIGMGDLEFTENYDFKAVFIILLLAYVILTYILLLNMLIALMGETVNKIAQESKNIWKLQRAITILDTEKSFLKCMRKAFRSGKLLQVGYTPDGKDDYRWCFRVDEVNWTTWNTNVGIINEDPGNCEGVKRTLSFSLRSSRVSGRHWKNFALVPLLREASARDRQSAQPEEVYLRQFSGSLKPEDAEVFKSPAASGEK
#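 TRPV1-expressing cells were cultured overnight at 35.5C and loaded with Fluo-8 calcium dye for 40 to 90 min at room temperature. After a 10 s baseline, compound was added and calcium influx was read kinetically for 3 min (ex 480/em 520 nm).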
# Six1-Eya2 blk: inhibitors of human Six1/Eya2 interaction. Q15475+O00167. AlphaScreen GST-Six1/His-Eya2 binding, biochemical; hits give low values; control for the full effect not named in the record. activity change, % (no concentration beside the values). 360,000 tested, 0.56% active; in the data active = activity change below about -65%; inconclusive = about -30% to -65%; inactive = above about -30%; also: % is scaled to controls: 0 for no effect and ±100 for the full control effect; compound concentration not given in the record
#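 Homogeneous AlphaScreen proximity assay pairing GST-Six1 with His-tagged Eya2 (added as 5X mix: 250 nM and 500 nM) in 50 mM Tris pH 8.0, 300 mM NaCl, 1 mM TCEP. Glutathione donor and nickel acceptor beads; 1 h, 37 °C, dark.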
# CtBP-E1A blk: inhibitors of CtBP/E1A interaction. AlphaScreen GST-E1A/His-CtBP binding, 1536-well; hits give low values; control for the full effect not named in the record. 340,000 tested, 0.49% active. activity change, % (concentration not given with the values); in the data active means activity change below about -65%; inconclusive means about -30% to -65%; inactive means above about -30%; also: % is scaled to controls: 0 for no effect and ±100 for the full control effect
#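 Steps: dispense buffer (Tris pH 8.0, NaCl 300 mM, TCEP 1 mM, BSA, Tween 20); add 5X protein mix (GST-E1A, His-CtBP, 125 nM each); pin 23 nL compound; 2 h at 37 °C, dark; add 5X beads (50 ug/mL); 1 h; read.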
# PINK1 modulator: changes PINK1 expression. PINK1 immunofluorescence, high-content cytometry, 24 h. Potency, µM (series often up to 76.6 µM), inactives show top-dose activation (PINK1 increase), hits mostly activators. 410,000 tested, 0.2% active; active = well fitted activation curve with a large enough effect; inconclusive = small, poorly fitted or top-dose-only effect; inactive = flat fitted curve, though single readings scatter; cell line not stated here;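 also: potency is read from the fitted curve at half-maximal effect; % of control where 0% means no effect; nearly all actives have a fitted effect of over 65% in size; a mitochondrial uncoupler was the plate control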
#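 Cells are seeded, rested 12 hours, then given compound at five concentrations or DMSO for 24 hours. After fixation, blocking and antibody staining, PINK1 amount and mitochondrial localization are scored; CCCP serves as control.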
# D2 agonist: agonists of human D2 dopamine receptor (beta-arrestin); P14416; DiscoveRx PathHunter D2 beta-arrestin, luminescence, 90 min; 100% = 57 uM dopamine signal; activation, % (concentration not given with the values); 360,000 tested, 0.084% active; in the data active = activation above about 40%; inconclusive = about 15% to 40%; inactive = below about 15%; also: compound concentration not given in the record; the text of the record calls up to 30% inactive
#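 DiscoveRx PathHunter D2 beta-arrestin cells (2,100/well) attached overnight, then compound-stimulated 90 min at 37 C in HBSS/10 mM HEPES/0.1% Tween-20 buffer; beta-galactosidase complementation read by luminescence after 1 h at ambient temperature. Dopamine 57 uM final (EC100) as control.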
# Numbers without * were called inactive; ? = inconclusive; . = no result given; & = joins results of further samples; [ ] = another dose, or the depositor's remark.
SMILES,D2 PAM,Sfp inh,TRPV1 potentiator,Six1-Eya2 blk,CtBP-E1A blk,PINK1 modulator,D2 agonist
O=S(=O)(NCCc1csc(-c2cccnc2)n1)c1cccc(F)c1,-6,8%,-9,-7,-4,1.1%,-0.5
CN(C)CCNc1oc(-c2cccc(Cl)c2)nc1C#N,0,10%,-5,2,1,-5.8%[38.3 µM],1.5
Cc1occc1-c1nnc(SCC(=O)Nc2ccccc2)n1Cc1ccccc1,1,6%,-12,-3,3,.,-2.2
CC(=O)c1ccc(NC(=O)c2ccc(N3C(=O)c4cccnc4C3=O)cc2)cc1,-12,-2%,0,-4,3,1.6%,-1.7
Cc1ccc2[nH]c(=O)c(C(c3nnnn3C3CCCC3)N(Cc3cccnc3)Cc3ccco3)cc2c1 (stereo not drawn),2,-12%,18,0,5,3.4%,-1.1
O=C(NC(=O)c1cc(OCC(F)(F)F)ccc1OCC(F)(F)F)Nc1ccccc1,-8,13%,5,9,-2,6.5%,-5.0
O=C(NCCc1ccccc1)c1ccc(OCCOc2ccccc2)cc1,0,-9%,4,1,8,-5.9%[38.3 µM],0.2
Nc1ncccc1C(=O)OCC(=O)N1CCN(S(=O)(=O)c2ccc(Cl)cc2)CC1,-4,.,-11,-3,.,1.5%,-3.4
O=C(NC(=S)NCC1CCCO1)c1ccc([N+](=O)[O-])cc1 (stereo not drawn),?,-23%,6,2,-8,1.3%,5.5
O=C(NNC(=S)Nc1ccccc1)c1ccc2ncccc2c1,-11,-11%,-2,17,24,0.4%,-12
CN(C)CCCNc1c2c(nc3ccccc13)CCC2,-9,4%,4,3,.,3.1%,-6.3
Cc1cn(CC(=O)NCCN2CCOCC2)c(=O)[nH]c1=O,.,.,.,2,6,-0.6%,-0.2
Cc1nn(C)cc1CNC(=O)c1cnn2c(C(F)F)cc(C3CC3)nc12,-15,5%,8,-4,2,-1.8%,0.5
Cc1ccc(-c2cc(=O)c3ccccc3[nH]2)cc1,-18,13%&4%,5,8,5,5.4%,-1.1
O=C(ON=C1CCSCC1)c1ccccc1,-27,.,.,1,0,1.5%,-1.0
Cc1cccc(NCC(=O)NNC(=S)Nc2ccccc2)c1,-37,26%,0,-1,-17,-0.9%,-7.7
CCCSCCCNC(=O)Cn1cc2c(n1)CCCCC2,-3,18%,-19,-1,0,1.5%,-1.3
Oc1ccc(/C=N/Nc2cc(N3CCCC3)nc(N3CCCC3)n2)cc1O,?,-16%,-12,-26,-21,6.2%,6.3
Cc1ccc(NC(=O)/C=C/c2cccc([N+](=O)[O-])c2)nc1,2,15%,-9,4,2,0.5%,1.0
CC(C)c1ccc(CNc2nc(NCC3CC3)nc3ccsc23)cc1,-11,.,.,1,-1,-1.6%,8.6
COc1ccc(C(=O)Nc2cccc3cccnc23)cc1OC,4,-22%,20,0,-2,-0.1%[38.3 µM],0.2
CCCCc1n[nH]c2c1/C(=N/O)CC(c1ccccc1)C2 (stereo not drawn),-8,-8%,6,2,-4,0.0%,-2.1
Cc1cc(NC(=O)CSc2nnc(Nc3ccccc3C)s2)no1,-4,6%,-11,-1,7,5.4%,-4.2
Cc1cnn(Cc2ccccc2)c1N,13,-1%,-15,11,2,0.6%,-0.8
Cc1cc(C(=O)OCC(=O)Nc2cc(S(=O)(=O)N(C)C)ccc2Cl)c2ccccc2n1,-6,17%,16,-10,-5,3.2%,-0.7

# (cont.)
SMILES,D2 PAM,Sfp inh,TRPV1 potentiator,Six1-Eya2 blk,CtBP-E1A blk,PINK1 modulator,D2 agonist
CCc1nc2ccc(C(=O)NCCCN3CCCC3=O)cn2c1N(C)CCC(C)C,-10,.,.,-2,-1,0.2%,-2.0
CCCCN(C(=O)C1CC(=O)N(c2ccc3c(c2)OCCO3)C1)c1c(N)n(CCCC)c(=O)[nH]c1=O (stereo not drawn),-3,.,16,-2,4,1.8%,-2.6
COc1ccc(CCNC(=O)CN(C)S(=O)(=O)c2cccs2)cc1OC,-13,5%,-14,11,-7,-2.0%,0.6
CCOc1ccc(OCCC(=O)OCC(=O)Nc2ccc(C)c(S(=O)(=O)N3CCCCC3)c2)cc1,-16,.,15,-21,-3,1.8%,0.8
O=c1[nH]c2ccccc2c(O)c1SCCO,-5,79µM*,-12,-10,-9,1.7%,0.5
O=C(NC(=S)N1CCN(Cc2ccccc2)CC1)c1cccnc1,1,-9%,-2,0,4,0.0%,2.8
COc1ccc(C2CC(c3ccccc3)=NN2C(=O)COC(=O)C2(C)CC2(Cl)Cl)cc1 (stereo not drawn),-11,12%,-9,-1,4,3.4%,2.5
Cc1ccccc1-c1nc(CN2CCN(C(=O)c3ccco3)CC2)c(C)o1,-21,4%,4,-5,-2,0.4%,-2.0
Cc1ccc(-c2nc3cccnc3o2)cc1NC(=O)COc1ccc(Cl)cc1C,8,4%,-5,0,-1,16%,-2.6
NS(=O)(=O)c1ccc(NC(=O)c2ccc3c(c2)OCO3)cc1,-1,8%,-17,-5,5,6.8%,-1.0
COC(=O)c1ccc(-c2ccc(/C=N/N3C(=O)C4C5C=CC(C6CC56)C4C3=O)o2)cc1 (stereo not drawn),-5,-27%,-3,1,-8,?,-2.3
Cc1ccccc1Cn1nnc(-c2cccc(C(=O)O)c2)n1,-15,24%,8,2,5,22%[38.3 µM],-2.9
Cc1ccc(CNC(=O)CN2CCN(Cc3ccc(Cl)cc3)C2=O)cc1,-4,13%,-15,1,7,3.2%,0.5
CC(Oc1ccc(Br)cc1)C(=O)Nc1nnc(C2CC2)s1 (stereo not drawn),7,.,30,2,6,1.1%,-3.9
O=C(NCc1ccccc1Cl)c1csc([C@@H]2O[C@H](CO)[C@H](O)[C@H](O)[C@H]2O)n1,-15,.,.,3,2,2.0%,-9.1
CC(=O)n1cc(C2C(=O)CCCC2=O)c2ccccc21,-8,4%,29,0,9,0.8%,1.7
CC(=O)c1ccc(S(=O)(=O)N2CCN(CC(=O)NC(=O)NC3CCCCC3)CC2)cc1,-1,.,4,1,-4,0.3%,1.3
CC(C)NC(=O)COc1coc(CN2CCN(c3ccccc3)CC2)cc1=O,-2,11%,-7,2,.,1.5%,7.5
COc1ccc(NC(=O)c2ccccc2NC(=O)NC2CCCCC2)cc1,-4,18%,-9,3,0,4.6%,-0.5
CO/N=C(\c1nonc1N)N1CCN(c2ccc(Cl)cc2[N+](=O)[O-])CC1,2,-15%,-9,?,?,14%,3.0
CC(=O)Nc1cccc(C(=O)Nc2cc(C(F)(F)F)ccc2-n2cncn2)c1,-12,.,.,1,8,1.6%,0.3
C[C@H]1CN([C@@H](C)CO)S(=O)(=O)c2ccc(Br)cc2O[C@@H]1CN(C)C(=O)CCN1CCCCC1,-2,.,.,7,-5,2.2%,-3.8
COC(=O)c1ccc(Cn2c(C)c(C(=O)NCc3ccc([N+](=O)[O-])cc3)sc2=O)o1,1,.,.,-9,-6,0.1%,5.1
O=C(Cn1sc2ccccc2c1=O)Nc1ccc(F)cc1,.,.,.,-3,2,-1.4%,-2.9
COc1cccc(-n2nc(-c3ccnn3-c3ccc(F)cc3)c(=O)n(C)c2=O)c1,7,-5%,-6,-17,9,2.5%,-3.0

# (list continues)
SMILES,D2 PAM,Sfp inh,TRPV1 potentiator,Six1-Eya2 blk,CtBP-E1A blk,PINK1 modulator,D2 agonist
C=CCNC(=O)C1CCN(c2ccc(S(=O)(=O)N3CCOCC3)cc2[N+](=O)[O-])CC1,-18,2%,-11,-2,.,-1.6%,-2.5
O=C(CCl)Nc1cccn2ncnc12,-11,-16%,13,-7,5,-1.1%,0.4
Cn1c(C(=O)NC2CCCCCC2)cc2c(=O)n(C)c3ccccc3c21,4,8%,0,-7,7,6.9%,2.4
CC(C)[C@H](NS(=O)(=O)c1cccc(Cl)c1)C(=O)OCC(=O)NC(=O)CN1CCCC1=O,-6,.,-4,-5,.,-0.5%,-4.1
CN(Cc1ccncn1)C(=O)CC1C(=O)NCCN1Cc1cccc(Oc2ccccc2)c1 (stereo not drawn),11,5%,6,-10,2,2.2%,2.6
Cc1cc(Nc2c(C)n(C)n(-c3ccccc3)c2=O)n2c(nc3cc(F)c(F)cc32)c1C#N,-10,8%,24,3,.,3.7%,-4.3
CC(C)CNC(CC(=O)Nc1cccc([N+](=O)[O-])c1)C(=O)O (stereo not drawn),-9,4%,3,2,8,2.4%,0.3
COc1ccc(NC(=S)NC(NC(=O)c2cccc(C)c2)C(Cl)(Cl)Cl)c([N+](=O)[O-])c1 (stereo not drawn),-8,?,-5,-22,-6,1.3%,-0.7
Nc1nccc(/C=C/c2ccc(Cl)cc2)n1,-2,11%,7,9,-6,-2.1%,-1.6
NC(=O)c1ccc(NC(=O)c2cnc3ccccc3n2)cc1,-19,11%,0,-3,.,-0.4%,-5.1
